Mtb hypoxia rep: reduces hypoxia-regulated biosensor signal in M. tuberculosis; M. tuberculosis hypoxia-regulated fluorescent reporter, fluorescence; fluorescence inhibition, % (test concentration not listed); 0.1% of 300,000 active; AID 1159583;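 active = 35 to 45% if threefold the growth effect, above 45% if 1.5-fold the growth effect; inactive = the rest, general growth blockers included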;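 note: wells of about 50 µL received 100 nL stock; 0% = vehicle wells and 100% = reference inhibitor wells; whole bacteria with a GFP reporter of the hypoxia response; strong numbers were not always called active; many hits fall short of the cut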
RN4220 kill: S. aureus RN4220 growth inhibition | OD600, 16 h | inhibition, % (test concentration not listed) | 0.33% of 330,000 active | AID 1259311;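 active = z-score of -3 or lower and OD600 up to 0.18 on both plates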;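 note: plate controls were untreated cells for no effect and reference antibiotic for full effect; stock transfer was 100 nL into about 80 µL; one replicate is shown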
BJeLR viability: kills HRASV12-expressing BJeLR cells; BJeLR (HRASV12) viability, CellTiter-Glo ATP luminescence, 48 h; reference of the scale not given here; inhibition, % (no concentration beside the values); 0.17% of 300,000 active; AID 1554;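 active = replicate mean above 50%; inconclusive = above 50% but judged a plate artefact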;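 note: 50 nL library stock added to about 25 µL; numbers are from one replicate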
PrP 5UTR inh: inhibition of PrP 5' UTR reporter expression; cell-based PrP 5' UTR mRNA reporter, plate reader; 0.35% of 340,000 active; AID 488862; inhibition, % (no concentration beside the values);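 active = every replicate at 50% or more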;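 note: 0 = median of the neutral control wells; tested in H4 reporter cells; numbers are from one replicate; inactives centre near -14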
Sa ugtP lethal: growth inhibition of S. aureus ugtP deletion strain | growth inhibition, % (no concentration beside the values) | 0.54% of 330,000 active | AID 1259309 | S. aureus RN4220 ugtP deletion, OD600 growth, 16 h; some inactives read as strong as hits;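 active = z-score under -3 and OD600 up to 0.15 on both plates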;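 note: plate controls were untreated wells for no effect and antibiotic for full effect; wells of about 80 µL received 100 nL stock; the first replicate is given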
Bead autofluor: flagged as autofluorescent in microsphere protease counterscreen; AID 624483; 3.1% of 360,000 active; compound autofluorescence counterscreen, microsphere flow cytometry; active compounds read high; fluorescence intensity (concentration not given with the values);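 active = at least 3 SD above the mean of all compounds, about 16000 in these data; inconclusive = too few beads counted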;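 note: 100 nL of 1 mM stock went into each well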
Mtb hypoxia rep growth: further read-out of Mtb hypoxia rep, marked with its call; growth inhibition, %; measured here: M. tuberculosis growth (absorbance);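 0% = vehicle and 100% = reference antibiotic; read after six days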
* marks the source's active call; other numbers are inactive results; ? = inconclusive; . = no result given.

SMILES | Mtb hypoxia rep | Mtb hypoxia rep growth | RN4220 kill | BJeLR viability | PrP 5UTR inh | Sa ugtP lethal | Bead autofluor
COc1cc(C=Nc2ccccc2C(=O)Nc2ccccc2)cc(OC)c1OC | 1 | 5 | 1.1 | 2 | -22 | -1 | 1940
CCc1cccc(NC(=O)c2cccc(S(=O)(=O)N3CCN(C)CC3)c2)c1 | 4 | -5 | 0.0 | -8 | -10 | 8 | 5979
COc1ccc(-c2cc(=O)c3c(O)c(OC)c(O)cc3o2)cc1 | . | . | 0.2 | -2 | -23 | -1 | 3889
O=C(CSCCO)Nc1ccc(C23CC4CC(CC(C4)C2)C3)cc1 | 2 | -2 | 10 | -19 | -53 | -6 | 5926
COc1cc(C(CC(=O)O)n2cnnn2)ccc1OC(C)C (configuration not stated) | -4 | 7 | 0.0 | -1 | -27 | 7 | 4174
CC(=O)c1sc(NC(=O)CN2C(=O)NC3(CCCC3)C2=O)nc1-c1ccccc1 | 13 | 1 | 5.1 | 4 | -14 | 9 | ?
CCOC(=O)c1c(N)sc2c(NC(C)=O)cccc12 | 17 | 13 | -0.9 | 1 | -5 | 3 | .
COC(=O)[C@@H]1C[C@H]2CC[C@H](O)C[C@H]2N1Cc1ccc(C)s1 | . | . | . | -4 | 9 | . | 4154
Nn1cnnc1SCC(=O)Nc1ccc2c(c1)OCO2 | 11 | 4 | 3.8 | -6 | -3 | 1 | 4956
CN1C2CCC1/C(=C\c1ccccc1Cl)C(=O)/C2=C\c1ccccc1Cl | . | . | 4.7 | 1 | . | 1 | .
S=c1[nH]c(-c2ccccc2)cn1N=Cc1ccccc1Br | -2 | 18 | 13 | . | . | 11 | .
CC(=O)N1CC(C)c2scc(C)[n+]2-c2ccccc21 (configuration not stated) | 8 | 2 | 4.6 | 2 | -7 | 0 | 1990
Cc1cc(=O)[nH]c(N/N=C/c2ccc(OC(=O)c3cccnc3)cc2)n1 | . | . | . | 10 | 1 | . | 3490
Cc1ccccc1OCC(=O)NC(=S)Nc1cccc2cc(O)ccc12 | 8 | -18 | -5.4 | -2 | -9 | -2 | 5974
Cc1occc1C(=O)N1CCN(S(C)(=O)=O)CC1 | 4 | 4 | 0.6 | -2 | -10 | -1 | 10994
COc1ccc(-n2c(C)nc(N)c2C(=O)c2ccccc2)cc1 | 2 | -1 | 3.7 | -4 | -20 | 12 | 4994
Nc1cccnc1Sc1ccc(Cl)cc1 | -3 | 9 | 3.5 | 1 | -13 | -3 | 16031
CCc1ccc(Nc2cnn(-c3nc4ccccc4s3)c(=O)c2Cl)cc1 | 13 | 2 | 19 | -4 | -53 | -9 | 2419
Cn1c(=O)[nH]c(=O)c2c1nc(N)n2Cc1ccccc1 | 3 | 1 | 1.2 | -1 | -24 | 8 | 3843
CCn1nc(C)c(/C=N\NC(=O)c2ccc3c(c2)OCO3)c1C | . | . | . | 6 | -13 | . | 5069
Cn1cnc2nc[nH]c2c1=S | 9 | 5 | 5.3 | . | -11 | 7 | 2989
COc1cc(NC(=O)CSc2ncnc3sc4c(c23)CCC(C)C4)c(C(=O)O)cc1OC (configuration not stated) | . | . | . | -6 | -6 | . | 5513
COC1OC2COC(c3ccccc3)OC2C(O)C1N (configuration not stated) | 3 | 9 | -0.4 | . | -15 | -5 | 3972
CC(C)CC1c2[nH]c3ccccc3c2CCN1C(=O)CCC(=O)N(C)C (configuration not stated) | 7 | 7 | 3.7 | -5 | -8 | 8 | 4594
Cc1ccc(NC(=O)CN2CCc3cc4c(cc3C2C)OCCCO4)cc1 (configuration not stated) | 7 | 8 | -0.9 | -3 | 11 | 6 | 5090
CCSC1=C(C#N)C(c2ccccc2Cl)CC(=O)N1 (configuration not stated) | . | . | -1.5 | 4 | -35 | -2 | 4259
O=C(CCCN1C(=O)c2cccc3cccc(c23)C1=O)NCc1cccnc1 | 1 | 2 | 8.6 | -14 | -27 | 5 | 3841
CCc1nonc1NC(=O)c1oc2ccccc2c1C | 11 | -3 | 3.2 | 2 | -54 | -3 | 5789
COc1ccc(NC(=O)CSc2nnc(NC(=O)c3ccco3)s2)cc1OC | 11 | 10 | -0.5 | -3 | -15 | -14 | 5679
COC(=O)c1ccc(NC(=S)N2CCN(Cc3cccc(C)c3)CC2)cc1 | 0 | 2 | 3.2 | 1 | -25 | 4 | 21917*
Cc1ccc(-c2nnn(CC(=O)N(CCO)C(C(=O)NC3CCCC3)c3ccc(F)cc3)n2)o1 (configuration not stated) | 12 | 4 | 2.7 | -2 | -14 | 3 | 4379
CC(C)OC(=O)Cn1c(-c2ccccc2)c(-c2ccccc2)nnc1=O | -2 | 14 | 4.8 | -24 | -22 | 6 | 3547
Cc1ccccc1OCCSc1nc2ccccc2n1CCC(=O)O | 4 | 4 | 10 | -11 | -31 | 6 | 3064
O=C(COC(=O)C1CCC1)NC(=O)c1ccccc1 | -1 | -2 | 3.9 | 8 | -3 | 5 | 6611
Nc1nc2ccccc2n1CCOc1ccc(F)cc1 | 9 | 4 | 5.3 | -4 | -5 | 2 | 4168
CC(NC(=O)CSc1ncccn1)c1ccc(Cl)cc1Cl (configuration not stated) | 9 | 9 | 0.6 | -1 | -14 | 2 | 4460
O=S(=O)(Nc1nccs1)c1cc(Cl)ccc1Cl | -3 | 2 | 24 | 0 | -20 | 2 | ?
O=C(N/N=C/c1cc2cc3c(cc2nc1Cl)OCCO3)c1ccccc1O | . | . | . | 4 | -9 | . | 2410
O=C(NNC(=O)C1CCN(Cc2ccccc2)CC1)c1cccc(Cl)c1 | . | . | 1.7 | -5 | -17 | 8 | 2651
CC(=O)Nc1cc(NC(C)=O)cc(-c2nc3ccccc3[nH]2)c1 | 17 | 10 | 2.8 | -2 | -17 | 0 | 3313
CC(=O)C1=C(C)NC(SCC(=O)c2cc(Cl)ccc2Cl)=C(C#N)C1c1ccco1 (configuration not stated) | 0 | -5 | 9.8 | -2 | -12 | -43 | 8058
CCOC(=O)CSc1ncc(OC)c(Sc2ccc(OC)cc2)n1 | 3 | 14 | 14 | 3 | -53 | -14 | 20771*
CN(C)S(=O)(=O)c1cccc(C(=O)Nc2ccccc2N2CCCCC2)c1 | 18 | 7 | 3.2 | -13 | -12 | 8 | 5658
Cc1c(Cl)c([N+](=O)[O-])nn1CCCC(=O)NC(C)c1ccccc1 (configuration not stated) | 3 | 14 | 2.1 | -5 | 8 | 1 | 7127
CCN(CC)C(=O)Cn1cc(S(=O)(=O)CC(=O)Nc2ccc(F)cc2F)c2ccccc21 | 0 | 2 | 4.0 | -1 | -6 | 4 | 4274
Cc1cccc(N2CCN(Cc3ccc([N+](=O)[O-])o3)CC2)c1C | . | . | 9.2 | -9 | -24 | 1 | 4210
COCCCNCC(O)COc1cccc2[nH]c(C)cc12 (configuration not stated) | 10 | -2 | 5.7 | 0 | -21 | -6 | 4700
Cc1ccc(S(=O)(=O)N2CCC(C(=O)NCCCN3CCOCC3)CC2)cc1C | 12 | 2 | 5.2 | 3 | -24 | 2 | 5988
Cc1cc(C(=O)COc2ccccc2C(N)=O)c(C)n1C | 5 | -4 | 5.1 | 1 | -9 | 3 | 3998
CCCCS(=O)(=O)/C=C\C=C/S(=O)(=O)CCCC | . | . | 14 | 24 | -25 | -3 | 2194
CS(=O)(=O)Nc1ccccc1C(=O)NC1CC2CCC1C2 (configuration not stated) | 5 | 10 | 3.7 | 6 | -15 | 8 | ?
Cc1[nH]n(-c2ccccc2)c(=O)c1C=NNC(=O)COc1ccccc1[N+](=O)[O-] | -11 | -6 | 14 | . | . | 1 | .
COc1ccc(N2CCN(S(=O)(=O)CC34CCC(CC3=O)C4(C)C)CC2)cc1 (configuration not stated) | -4 | 0 | 1.0 | 5 | -14 | 7 | 3208
COc1ccc(S(=O)(=O)Nc2c(NC3CCCCC3)c3ccccc3oc2=O)cc1 | -7 | -7 | 5.8 | -14 | -13 | 7 | 4661
COc1ccc(NC(=O)CSc2nncs2)cc1S(=O)(=O)N1CCCCC1 | 1 | 7 | 6.7 | . | -8 | 7 | 3487
CCOC(=O)c1c(C=O)c(C)n(Cc2ccc(C)cc2)c1C | -2 | 2 | 4.8 | 1 | -22 | -11 | 9821
O=S(=O)(c1ccc(S(=O)(=O)N2CCOCC2)cc1)N1CCCC1 | -1 | 12 | -0.5 | 2 | -5 | -6 | 4555
CC(=O)Nc1ccc(/C=C/C(=O)c2ccccc2)cc1 | 3 | 14 | -1.5 | 10 | . | -3 | .
O=C(CCCC(=O)NN=Cc1ccccc1C(=O)O)NN=Cc1ccccc1C(=O)O | 3 | 4 | 7.5 | . | . | 3 | .
COC(=O)c1ccc(COC(=O)[C@@H]2CC(O)CN2S(=O)(=O)c2ccccc2[N+](=O)[O-])cc1 (some centres not stated) | -10 | -10 | -2.7 | 9 | 6 | 4 | ?

Further structures
SMILES | Mtb hypoxia rep | Mtb hypoxia rep growth | RN4220 kill | BJeLR viability | PrP 5UTR inh | Sa ugtP lethal | Bead autofluor
CC(OC(=O)CCCN=C1NS(=O)(=O)c2ccccc21)C(=O)N(C)c1ccccc1 (configuration not stated) | -2 | -4 | 4.2 | -6 | -14 | 10 | 4184
O=S(=O)(Nc1ncccc1O)c1ccc(Cl)cc1 | 4 | 5 | 5.6 | 2 | -15 | 4 | 23828*
CCOc1ccc(S(=O)(=O)N2CCC(C(=O)N3CCOCC3)CC2)cc1Cl | 14 | 0 | 2.6 | 9 | -24 | 4 | 5466
Cc1nc(-c2ccc([N+](=O)[O-])cc2)sc1C(=O)O | 11 | 13 | 5.4 | 7 | -14 | 6 | 3515
Nc1ccccc1-c1nnc(-c2ccccc2N)n1N | -1 | -1 | 5.6 | 0 | -22 | 3 | 4688
Cc1cc(C(=O)Cn2cc([N+](=O)[O-])ccc2=O)c(C)n1CC1CCCO1 (configuration not stated) | 4 | 4 | 5.1 | . | 5 | 2 | 5668
CSC1=NCCN1S(=O)(=O)c1ccc(Cl)cc1 | 16 | 1 | 3.7 | -3 | -10 | 0 | 2499
CC1CCCC(C)N1C(=O)c1ccc2c(c1)S(=O)(=O)c1ccccc1C2=O (configuration not stated) | -8 | 16 | 4.7 | 2 | -25 | 3 | 3663
Cn1ncc2c(NNC(=O)c3ccc(O)cc3)ncnc21 | -8 | 2 | 0.0 | -1 | -14 | -8 | 4228
CC1CCN(C(=O)CCN2C(=O)/C(=C/c3cccs3)SC2=S)CC1 | . | . | 0.5 | -9 | -10 | -14 | 4302
COc1cc(-c2nc(CN3CCN(c4ncccn4)CC3)c(C)o2)ccc1F | -8 | -10 | 2.6 | 1 | -33 | 7 | 4301
COc1ccc(Br)c2oc(S)cc(=O)c12 | 8 | 4 | -5.8 | 3 | -12 | -2 | 2908
COc1ccc(NC(=O)CSc2nnc(-c3cccnc3)n2C)cc1 | 12 | 5 | 0.8 | 3 | -9 | 2 | 4219
Cc1cc(C)cc(OCC(=O)NC(C)c2ccccc2)c1 (configuration not stated) | 13 | 11 | -5.2 | -14 | -14 | 20 | 3738
Fc1ccc(Nc2ncnc3sc4c(c23)CCC4)cc1F | 6 | 5 | 9.8 | 4 | -14 | 1 | 2130
Cc1ccc(S(=O)(=O)N2CCCCC2)cc1NC(=O)COC(=O)c1ccc2c(c1)OCO2 | 6 | 0 | 3.6 | 3 | -9 | 4 | 9001
CCOC(=O)c1ccccc1NC(=O)COC(=O)c1cc([N+](=O)[O-])ccc1N1CCOCC1 | 2 | 2 | 5.3 | 2 | -7 | 2 | 4272

7 neighbouring compounds already listed, for reference:
SMILES | Mtb hypoxia rep | Mtb hypoxia rep growth | RN4220 kill | BJeLR viability | PrP 5UTR inh | Sa ugtP lethal | Bead autofluor
COc1cc(-c2nc(CN3CCN(c4ncccn4)CC3)c(C)o2)ccc1F | -8 | -10 | 2.6 | 1 | -33 | 7 | 4301
COc1ccc(Br)c2oc(S)cc(=O)c12 | 8 | 4 | -5.8 | 3 | -12 | -2 | 2908
COc1ccc(NC(=O)CSc2nnc(-c3cccnc3)n2C)cc1 | 12 | 5 | 0.8 | 3 | -9 | 2 | 4219
Cc1cc(C)cc(OCC(=O)NC(C)c2ccccc2)c1 (configuration not stated) | 13 | 11 | -5.2 | -14 | -14 | 20 | 3738
Fc1ccc(Nc2ncnc3sc4c(c23)CCC4)cc1F | 6 | 5 | 9.8 | 4 | -14 | 1 | 2130
Cc1ccc(S(=O)(=O)N2CCCCC2)cc1NC(=O)COC(=O)c1ccc2c(c1)OCO2 | 6 | 0 | 3.6 | 3 | -9 | 4 | 9001
CCOC(=O)c1ccccc1NC(=O)COC(=O)c1cc([N+](=O)[O-])ccc1N1CCOCC1 | 2 | 2 | 5.3 | 2 | -7 | 2 | 4272

Screens deposited in PubChem by several laboratories.
